LANA-H2A inh: blocks KSHV LANA binding to histone H2A/H2B; actives 0.6% (n = 320,000); AID 2629; cell-free LANA-H2A/H2B peptide, fluorescence polarization; Q9QR71; inhibition, % (no concentration beside the values); in the data active = inhibition mostly above about 10%, no sharp cut-off; inactive = mostly below about 6.7%;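 note: stock transfer was 7.5 nL into about 10 µL; 0% = median of vehicle wells and 100% = median of positive control wells; one replicate is shown; the record names a cut of 25% in any replicate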
ALR inh: inhibitors of human sulfhydryl oxidase ALR; inhibition, % (test concentration not listed); purified ALR, DTT oxidation, H2O2 HRP-luminol luminescence; actives 3.8% (n = 290,000);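 active = mean and each replicate at 75% or more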;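 note: stock transfer was 7.5 nL into about 7.5 µL; 0% = neutral wells and 100% = wells with inactivated enzyme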
Target sequence (P55789 whole entry, looked up): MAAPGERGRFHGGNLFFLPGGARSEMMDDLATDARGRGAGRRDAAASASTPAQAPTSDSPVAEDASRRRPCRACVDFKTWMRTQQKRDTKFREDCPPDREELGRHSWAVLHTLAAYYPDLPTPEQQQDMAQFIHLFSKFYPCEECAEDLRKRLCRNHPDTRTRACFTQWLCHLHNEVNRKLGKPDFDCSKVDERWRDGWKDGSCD
E coli growth: inhibitors of Escherichia coli growth | OD600, 23 h; active compounds read low | OD600 absorbance (test concentration not listed) | actives 0.21% (n = 330,000) | AID 1053175;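 active = OD600 absorbance below the run mean of sample wells minus 3.6 SD, in any replicate, cut at about 0.56 in these data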;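 note: stock transfer was 300 nL into about 60 µL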
FGF22 binding: shifts melting point of recombinant human FGF22; recombinant FGF22 thermal shift, SYPRO orange fluorescence; percent of sucrose octasulfate shift, DMSO zero; actives 1.5% (n = 340,000); AID 651658; Q9HCT0; calls only at 9.99 µM;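 active = melting point raised past a set limit in the mean and every replicate; three in four hits are not shown here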
UCH37 inh: inhibitors of human deubiquitinating enzyme UCH37 | inhibition, % (concentration not given with the values) | purified proteasome/UCH37, Ub-AMC cleavage fluorescence | Q9Y5K5 | AID 588478 | actives 0.33% (n = 330,000);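 active = mean of two replicates above 20%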;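 note: 0% = compound-free wells with enzyme and 100% = wells lacking proteasome; stock transfer was 100 nL into about 20 µL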
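Signal – fluorescence, ex 355 nm, em 460 nm · System – Proteasome-bound UCH37 · Input – 0.15 nM proteasome as dispensed · Timing – 30 min preincubation with enzyme, 25 min cleavage at room temperature · Read-out basis – percent inhibition of cleavage signal versus uninhibited and no-proteasome wells · Medium – Tris-HCl pH 7.4 with ATP-MgCl2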
HNF4A DNA FP: change in binding of human HNF4 alpha to DNA. HNF4a-FITC DNA binding, fluorescence polarization, 1 h. activity change, % at 10 µM. actives 0.3% (n = 360,000). AID 1224865; in the data active = activity change above about 30%, passing the limit was not always enough;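 note: controls were the assay level and a saturating level of protein; the project sought stronger binding though the title names inhibitors; some compounds called inactive have numbers as strong as hits; positive values seem to mean higher polarization but the record does not say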
Target sequence (P41235 whole entry, looked up): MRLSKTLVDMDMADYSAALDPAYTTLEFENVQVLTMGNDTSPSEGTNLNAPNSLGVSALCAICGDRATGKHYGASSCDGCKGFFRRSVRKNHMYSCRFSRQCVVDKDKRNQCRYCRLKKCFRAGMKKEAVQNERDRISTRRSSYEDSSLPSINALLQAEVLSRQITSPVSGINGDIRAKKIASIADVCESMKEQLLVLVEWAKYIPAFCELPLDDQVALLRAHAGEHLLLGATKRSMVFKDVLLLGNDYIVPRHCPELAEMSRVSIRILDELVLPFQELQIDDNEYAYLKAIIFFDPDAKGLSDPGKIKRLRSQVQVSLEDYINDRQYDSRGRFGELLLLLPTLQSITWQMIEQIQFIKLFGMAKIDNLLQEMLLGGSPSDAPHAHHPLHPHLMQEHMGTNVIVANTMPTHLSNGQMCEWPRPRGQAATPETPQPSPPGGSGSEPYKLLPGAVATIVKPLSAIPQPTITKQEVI
B2AR ag: activates human beta-2 adrenergic receptor causing internalization; response, % (no concentration beside the values); actives 0.43% (n = 340,000); AID 504454; P07550; Am2.2-beta2AR cells, FAP receptor internalization, flow cytometry; reference of the scale not given here;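 active = response above a set limit, near 3 SD of response in nonfluorescent compounds, cut at about 42% in these data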;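 note: stock transfer was 100 nL into about 11 µL; a reference agonist was the positive control; negative values mostly stem from fluorescent compounds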
Target sequence (P07550 whole entry, looked up): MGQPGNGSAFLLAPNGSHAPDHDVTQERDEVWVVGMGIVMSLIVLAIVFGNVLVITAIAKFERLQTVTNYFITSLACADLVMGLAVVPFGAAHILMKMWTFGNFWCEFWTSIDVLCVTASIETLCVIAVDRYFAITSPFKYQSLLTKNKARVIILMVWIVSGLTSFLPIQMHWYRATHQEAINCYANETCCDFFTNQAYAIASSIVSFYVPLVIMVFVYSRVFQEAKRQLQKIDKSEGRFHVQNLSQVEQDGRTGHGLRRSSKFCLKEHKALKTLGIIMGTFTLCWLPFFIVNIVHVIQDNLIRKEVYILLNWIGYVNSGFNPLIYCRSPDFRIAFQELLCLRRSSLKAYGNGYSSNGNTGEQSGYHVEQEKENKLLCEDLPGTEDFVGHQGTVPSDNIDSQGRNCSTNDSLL
* hit, by the source's call; i = inactive; nt = not tested or not shown; + = active, no number. The list is partial; the hit share may differ from the screen's.

SMILES	LANA-H2A inh	ALR inh	E coli growth	FGF22 binding	UCH37 inh	HNF4A DNA FP	B2AR ag
O=C(N/N=C/c1c(Cl)cccc1Cl)c1ccc(-n2cnnn2)cc1	-4.1	1	nt	i	nt	7.7	-3
C=C(C)COc1ccc(-c2ncncc2-c2ccc(Cl)cc2)c(O)c1	-2.5	0	0.66	i	-0.4	-1.9	-4
S=c1nccc(-c2cc(Cl)sc2Cl)[nH]1	-4.0	36	0.73	nt	0.5	-0.8	-7
Cc1nn(C)c(C)c1CCC(=O)N1CCCC(C(=O)c2cccc(OC(C)C)c2)C1 (centres undefined)	3.2	-1	0.7	i	4.5	-0.2	-7
Cc1cc(C)c(C)c(S(=O)(=O)N2CCN(c3ncnc4sc(C)c(C)c34)CC2)c1C	2.7	-9	0.72	nt	2.4	5.2	1
CNS(=O)(=O)c1ccc(N2CCCC2)c([N+](=O)[O-])c1	-4.1	nt	0.68	i	2.8	-2.2	-5
O=C(O)C(=O)Nc1nc(-c2ccc3c(c2)OCCO3)cs1	1.2	3	0.68	i	4.5	-0.7	0
COc1ccc(C(NC(=O)c2cccnc2)c2cc(Cl)c3cccnc3c2O)cc1OC (centres undefined)	1.3	-17	0.67	nt	-2.1	1.5	5
Cn1cccc1/C=N/NC(=O)c1cc2ccccc2cc1O	-4.3	9	nt	i	nt	0.5	3
O=C(CNC(=O)c1cccc(Cl)c1)Nc1ccc(F)c(F)c1F	-1.4	6	0.67	i	0.7	1.6	2
CCO[C@H]1OC(C(=O)NCc2ccccc2)=C[C@@H](C)[C@@H]1CCCO	-6.3	2	nt	i	0.4	-1.0	3
COc1ccc(OCCCC(=O)N(CCC2=CCCCC2)c2c(N)n(Cc3ccccc3)c(=O)[nH]c2=O)cc1	-2.4	-4	0.66	i	2.0	0.9	10
Cn1nnnc1SCC(=O)Nc1nn(-c2ccccc2)nc1C(N)=O	-4.1	nt	nt	nt	nt	-1.1	-11
CCOc1ccccc1NC(=O)c1csc(C)c1C	0.1	-16	0.7	i	3.0	1.6	2
CCO[C@@H]1OC(C(=O)O)=C[C@H](C2CCCCC2)[C@H]1CCCO	0.6	0	nt	i	1.3	-4.1	0

Grouped by structure, those above with an aryl methoxy group
SMILES	LANA-H2A inh	ALR inh	E coli growth	FGF22 binding	UCH37 inh	HNF4A DNA FP	B2AR ag
COc1ccc(C(NC(=O)c2cccnc2)c2cc(Cl)c3cccnc3c2O)cc1OC (centres undefined)	1.3	-17	0.67	nt	-2.1	1.5	5
COc1ccc(OCCCC(=O)N(CCC2=CCCCC2)c2c(N)n(Cc3ccccc3)c(=O)[nH]c2=O)cc1	-2.4	-4	0.66	i	2.0	0.9	10

Following part:
SMILES	LANA-H2A inh	ALR inh	E coli growth	FGF22 binding	UCH37 inh	HNF4A DNA FP	B2AR ag
CCOC(=O)c1ccccc1NC(=O)COC(=O)Cc1ccccc1F	nt	nt	0.66	i	4.5	5.9	-1
Cc1cccc(-n2c(N)cc(=O)nc2SCC(=O)NC2CCCCC2)c1	4.6	26	0.69	nt	-1.8	0.9	7
CCOc1ccc(Nc2cc(C)nc3nc(C)nn23)cc1	1.3	-12	nt	i	nt	2.7	1
CCC(C(=O)OC)n1cnc2c(nnn2-c2ccccc2)c1=O (centres undefined)	0.6	-5	0.73	i	1.6	1.9	4
NC(=O)NC(=O)CC1S/C(=N/N=C/c2ccccc2)NC1=O (centres undefined)	1.8	69	nt	i	nt	-3.9	9
O=C(CSc1ccccn1)N1CCN(S(=O)(=O)c2ccc(Cl)cc2)CC1	-0.5	-1	0.68	i	-2.1	-0.2	1
COc1ccc(C)cc1NC(=O)C1CCN(S(=O)(=O)c2c(C)noc2C)CC1	6.9	1	0.71	i	5.9	-2.9	3
O=C(CSc1nc2cc(S(=O)(=O)N3CCOCC3)ccc2o1)Nc1c(F)cccc1F	-0.9	9	0.7	i	8.1	-0.2	3
Cn1c2ccc(F)cc2c2ncn(CC3CCCO3)c(=O)c21 (centres undefined)	4.9	-3	0.64	i	-157	-4.1	-13
C=CCn1c(C)c(C(C)=O)c(N2CCN(C(c3ccccc3)c3ccccc3)CC2)nc1=S	1.7	2	0.62	i	2.1	7.0	18
O=C(Nc1cccc(S(=O)(=O)N2CCCCC2)c1)C1CC(=O)N(Cc2ccco2)C1 (centres undefined)	5.5	23	0.72	i	0.6	-3.2	10
COc1cc(NC(=O)CCC(=O)Nc2ccc3nc(N4CCOCC4)cc(C)c3c2)cc(OC)c1OC	0.9	5	0.63	i	-286	-1.7	11
CCC(CC)C(=O)N1N=C(c2ccc(NS(C)(=O)=O)cc2)CC1c1ccccc1 (centres undefined)	3.2	-3	0.66	i	-300	6.7	2
Cc1cc2ncn(/N=C/c3ccc4c(c3)OCO4)c2cc1C	3.7	50	nt	nt	nt	-1.1	-4
O=C(C[C@@H]1C/C=C\C[C@H](Cc2ccc(F)cc2)C(=O)OCCNC1=O)NCCO	6.3	-6	nt	i	-0.2	-1.0	-1
CN(Cc1ccccc1)C(=O)c1ccc(NC(=O)C2CCCN(C(=O)OC(C)(C)C)C2)cc1 (centres undefined)	12	-4	0.71	i	-0.9	5.4	0
Cn1c(=O)[nH]c(=O)c2c1[nH]c(=S)n2Cc1ccccc1	1.0	87*	0.7	i	7.2	0.1	-4
COc1ccc(CC(=O)NCC2CCCN(Cc3ccc(F)cc3F)C2)cc1 (centres undefined)	2.1	nt	0.67	i	3.1	1.9	-2
Cc1ccc(C)c(-n2c(Cc3cc(=O)[nH]c(=O)[nH]3)nnc2SC(C)C)c1	4.8	52	0.76	i	7.3	-2.6	0
CC(C)(C)[C@H]1C=C(C(=O)Nc2ccccc2)O[C@@H](OCCCCO)C1	2.4	7	nt	i	1.8	-0.4	-1
CC(=O)N(C(C)=O)c1c(N2CCOCC2)c2ccccc2oc1=O	-12	-1	0.63	i	6.9	-0.5	-5
Cc1cc(=O)oc2cc(OCC(=O)NCCc3ccccc3)ccc12	-3.1	2	0.72	i	-9.0	5.2	1
CC(c1nc2ccccc2o1)N1C(=O)c2ccccc2C1=O (centres undefined)	2.9	1	0.7	nt	1.4	-2.9	3
CCOC(=O)c1c(-c2ccccc2)csc1NC(=O)COc1ccc2c(C)cc(=O)oc2c1	-12	-6	0.76	i	-1.8	3.0	1
O=[N+]([O-])c1ccccc1OCCNCc1ccccc1	5.9	nt	0.67	i	6.4	-1.9	-4
COc1ccc(C2=NN(C(=O)CCC(=O)O)C(c3ccc(OC)c(OC)c3)C2)cc1 (centres undefined)	-2.0	-5	0.61	i	2.3	1.8	-2
COC(=O)CC1C(=O)NCCN1C(=O)c1cc([N+](=O)[O-])ccc1Cl (centres undefined)	-8.9	-7	0.62	i	0.3	3.3	-6
CCC1Nc2ncnc(N3CCCCC3)c2N(Cc2ccccc2)C1=O (centres undefined)	3.9	5	0.71	i	2.9	1.5	-4
COc1cc(Nc2c3ccccc3nc3ccccc23)cc(OC)c1OC	-5.9	94*	0.66	i	-16	-3.2	22
Cc1ccc2c(c1)[C@@H]1CN(C)CC[C@@H]1N2S(=O)(=O)c1ccc([N+](=O)[O-])cc1	-2.6	-22	0.71	i	1.5	0.2	-8
CCOC(=O)N1CCN(c2cc(=O)n(Cc3ccc(F)cc3)c(=O)[nH]2)CC1	2.4	0	0.63	nt	0.3	3.6	-1
O=C(O)CC1S/C(=N\N=C2CCCCCCC2)N(c2ccccc2)C1=O (centres undefined)	-5.6	1	nt	nt	nt	-0.1	1
COc1ccc(NC(=O)CCC(=O)Nc2nnc(C3CCCCC3)s2)c(OC)c1	-2.2	-11	0.66	i	-0.1	-1.0	1
COc1ccc(C(=O)NC2CCN(C(=S)Nc3cc(C)ccc3C)CC2)cc1	-0.2	-10	0.74	nt	0.9	-2.7	7
CCn1c(Cc2c(C)[nH]c3ccccc23)nnc1SCC(=O)NCc1ccco1	0.1	-1	0.76	nt	4.7	-3.9	7
CC1CCN(Cc2c(C(=O)N/N=C/c3ccc(OC(C)C)cc3)nnn2-c2nonc2N)CC1	1.2	-1	nt	+	nt	1.8	16
O=C(C1CCN(S(=O)(=O)c2ccc3c(c2)OCCO3)CC1)N1CCc2ccccc21	-3.2	-3	0.73	nt	-0.8	1.6	-7
Cc1cc(C(=O)COC(=O)Cn2c(C(F)(F)F)nc3ccccc32)c(C)n1Cc1ccco1	-0.5	-11	0.68	nt	6.3	6.4	-1
COc1cc2c(cc1NS(=O)(=O)N1CCCC1)oc1ccccc12	nt	nt	0.66	nt	0.3	1.9	0
Cn1nc(C(=O)N2CCN(c3ccccc3F)CC2)c2c1-c1ccccc1S(=O)(=O)C2	-2.6	-1	0.7	i	1.7	4.5	3
Cc1cccc(C(=O)OCC(=O)c2csc(N3CCCCC3)n2)c1[N+](=O)[O-]	0.5	-4	nt	i	nt	-6.3	-1
NC(c1ccccc1)c1cccnc1 (centres undefined)	2.9	nt	nt	i	nt	-3.0	-4
O=C(CN1CCCC1c1cccs1)Nc1cc(S(=O)(=O)N2CCCCC2)ccc1Cl (centres undefined)	nt	nt	0.7	i	1.5	-0.6	-14
COc1ccc(NC(=O)CN(C)C(=O)c2ccc(N3CCCC3)c([N+](=O)[O-])c2)cc1	2.2	-4	0.63	i	5.4	1.3	-6
Cc1ccc(S(=O)(=O)NCCC(C)C)cc1[N+](=O)[O-]	-4.9	-19	0.7	i	0.2	-2.6	-3
CCO[C@@H]1OC(C(=O)N2CCN(Cc3ccc4c(c3)OCO4)CC2)=C[C@H](C2CC2)[C@H]1CCCO	0.6	-7	nt	i	4.4	4.0	-3
O=C(Nc1ccccc1Cl)C1CC(=O)n2c(nc3ccccc32)N1 (centres undefined)	1.1	-3	0.71	i	0.7	nt	nt
COc1cccc(CCc2nnc(N)s2)c1	2.2	-4	0.68	i	0.4	1.2	-2
COc1cc(/C=C/c2nc(N)nc(-c3ccccc3O)n2)cc(OC)c1OC	-2.4	-1	0.69	nt	1.9	-5.4	17
Cc1ccc(-n2ncc(C#N)c2N)cc1	1.5	-2	0.65	i	0.7	5.1	-3
COCCn1c(SCC(=O)NC2CCCC(C)C2C)nc2ccccc2c1=O (centres undefined)	nt	nt	0.71	i	2.6	-0.4	-1
CC(C)n1c(CSCc2ccc(Cl)cc2Cl)n[nH]c1=S	-6.7	31	0.68	i	-0.5	-2.2	-3
COc1ccc(OCC(O)CNc2ccc(Br)cc2)cc1 (centres undefined)	-3.6	11	0.58	i	1.4	-2.9	-7
Cc1onc(-c2ccccc2)c1C(=O)N(Cc1ccccc1)C(C)C	6.0	nt	0.67	i	3.0	-0.1	-9
O=S(=O)(NC1CCCCC1)c1ccc(S(=O)(=O)N2CCN3CCCC3C2)cc1 (centres undefined)	-1.8	-4	0.72	i	4.1	-0.5	7
COc1cccc(CN2CC(C(=O)NCCCn3cccn3)CCC2=O)c1 (centres undefined)	6.2	-3	nt	i	nt	-7.5	-3
CCCCNc1c(-c2ccc(SC(C)CC)c(OC)c2)nc2ccc(Cl)cn12 (centres undefined)	-0.3	3	0.74	i	-75	9.4	52*
C/C(CC(=O)Nc1ccc([N+](=O)[O-])cc1)=N\NC(=O)c1ccccc1O	0.0	nt	nt	i	nt	-1.4	12
CC1Cc2cc(/C(O)=C3/C(=O)C(=O)N(CCCn4ccnc4)C3c3cccc([N+](=O)[O-])c3)ccc2O1 (centres undefined)	4.5	74	0.64	i	13	1.8	-7
COc1ccc(C(=O)Oc2cccc3cccnc23)cc1[N+](=O)[O-]	-2.1	-21	0.67	i	6.0	1.3	6

Sorted by the number under LANA-H2A inh (falling): 3 of the compounds above
SMILES	LANA-H2A inh	ALR inh	E coli growth	FGF22 binding	UCH37 inh	HNF4A DNA FP	B2AR ag
CCCCNc1c(-c2ccc(SC(C)CC)c(OC)c2)nc2ccc(Cl)cn12 (centres undefined)	-0.3	3	0.74	i	-75	9.4	52*
COc1ccc(C(=O)Oc2cccc3cccnc23)cc1[N+](=O)[O-]	-2.1	-21	0.67	i	6.0	1.3	6
CC(C)n1c(CSCc2ccc(Cl)cc2Cl)n[nH]c1=S	-6.7	31	0.68	i	-0.5	-2.2	-3

Source: PubChem BioAssay (several laboratories)
